Assay outcomes (PubChem)
CTSL1 counter: counter-screen for PFM18AAP inhibitors: inhibitors of F. hepatica cathepsin L1. actives 0.49% (n = 300,000). recombinant F. hepatica cathepsin L1, Z-Leu-Arg-MCA fluorescence. inhibition, % at 5.96 µM;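 active means inhibition above the mean of all tested compounds plus 3 SD, set per screening campaign, cut at about 17% in these data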;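 further: 0% = plate median of test compound wells and 100% = 1 µM Z-Phe-Ala-diazomethylketone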
Efflux pump inh: antifungal efflux pump inhibition, Nile Red retention; S. cerevisiae Candida pump triplex; inhibition, % at 10 µM; actives 0.44% (n = 330,000); AID 485275;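 active means plate passing quality check with inhibition over a set limit, or well fluorescence over plate mean plus 4 SD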;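 further: Nile Red retained in pooled yeast measured as flow cytometry median fluorescence; 0% = buffer negative control and 100% = Enniatin B positive control; higher means more Nile Red kept so more efflux inhibition; some compounds called inactive have numbers as strong as hits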
core dimer inh: blocks dimerization of HCV core protein; TR-FRET GST/Flag-core106 dimerization, 1536-well; inhibition, % at 5 µM; actives 0.33% (n = 300,000); AID 1899;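 active means inhibition above the mean of all tested compounds plus 3 SD, set per screening campaign, cut at about 45% in these data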
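test system = GST/Flag-tagged HCV core106 proteins | probe or stimulus = Eu donor and XL665 acceptor anti-tag antibodies | times = compound-protein-antibody incubation 4 h at 22.5 °C | signal = TR-FRET, excitation 340 nm, emission 617 and 671 nm | measure = percent inhibition of core106 dimerization signal | controls = wells lacking GST-core106 and wells with excess unlabelled core106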
EBNA-1 inhibitor: blocks EBNA-1 binding to DNA; EBNA-1 DNA binding, fluorescence polarization; AID 1950; actives 0.34% (n = 300,000); inhibition, % at 14.8 µM; in the data active means inhibition above about 28%
PP1 counter: PP1-alpha (human) inhibition in PP5 counter-screen | P62136 | purified PP1alpha, OMFP fluorescence | inhibition, % at 6.7 µM | actives 0.9% (n = 320,000) | AID 2235;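 active means inhibition above the mean inhibition of all tested compounds plus 3 SD, computed separately for each screening campaign, cut at about 15% in these data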
Target sequence (P62136 whole entry, looked up): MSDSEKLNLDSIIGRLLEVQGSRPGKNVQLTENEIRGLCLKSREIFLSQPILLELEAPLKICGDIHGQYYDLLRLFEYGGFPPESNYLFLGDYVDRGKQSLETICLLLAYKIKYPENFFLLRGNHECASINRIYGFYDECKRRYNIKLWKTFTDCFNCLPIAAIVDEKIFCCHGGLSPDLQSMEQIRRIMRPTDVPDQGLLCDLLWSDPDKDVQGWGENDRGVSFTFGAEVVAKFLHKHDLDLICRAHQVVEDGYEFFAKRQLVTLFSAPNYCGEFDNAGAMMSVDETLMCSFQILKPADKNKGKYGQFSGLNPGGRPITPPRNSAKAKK
TPT1 inh: C. albicans TPT1 enzyme inhibition; recombinant caTPT1, FP RNA substrate dephosphorylation; inhibition, % at 5 µM; actives 0.81% (n = 300,000); AID 1962;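 active means inhibition above the mean of all tested compounds plus 3 SD, set per screening campaign, cut at about 24% in these data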;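 further: plate controls were DMSO alone for no effect and ferristatin control at 100 nM for full effect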
PP5 primary: blocks human protein phosphatase 5 activity; AID 1987; P53041; actives 0.18% (n = 320,000); inhibition, % at 6.7 µM; purified PP5c, OMFP substrate fluorescence;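 active means inhibition above the campaign's mean inhibition across all tested compounds plus 3 SD, cut at about 9.5% in these data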;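 further: 0% = DMSO only and 100% = 100 µM cantharidin control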
Target sequence (P53041 whole entry, looked up): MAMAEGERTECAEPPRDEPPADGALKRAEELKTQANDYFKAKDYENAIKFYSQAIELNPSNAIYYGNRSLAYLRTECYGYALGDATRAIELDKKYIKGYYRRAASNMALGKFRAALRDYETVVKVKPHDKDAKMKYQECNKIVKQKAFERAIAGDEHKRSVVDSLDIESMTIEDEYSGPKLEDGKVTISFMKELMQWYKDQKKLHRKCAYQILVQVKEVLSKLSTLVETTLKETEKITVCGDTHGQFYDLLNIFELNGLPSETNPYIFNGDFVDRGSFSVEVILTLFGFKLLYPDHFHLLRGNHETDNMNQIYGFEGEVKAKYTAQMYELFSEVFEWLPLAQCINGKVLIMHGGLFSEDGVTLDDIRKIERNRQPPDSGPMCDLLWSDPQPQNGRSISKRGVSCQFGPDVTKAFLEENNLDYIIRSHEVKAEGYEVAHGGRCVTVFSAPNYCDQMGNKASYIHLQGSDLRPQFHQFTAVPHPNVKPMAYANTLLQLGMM
ZTA counter: counter-screen for EBNA-1 inhibitors: inhibitors of Epstein-Barr virus ZTA | P03206 | ZTA-DNA binding, fluorescence polarization | inhibition, % at 11 µM | actives 0.15% (n = 320,000) | AID 2234; in the data active means inhibition above about 33%
Target sequence (P03206 whole entry, looked up): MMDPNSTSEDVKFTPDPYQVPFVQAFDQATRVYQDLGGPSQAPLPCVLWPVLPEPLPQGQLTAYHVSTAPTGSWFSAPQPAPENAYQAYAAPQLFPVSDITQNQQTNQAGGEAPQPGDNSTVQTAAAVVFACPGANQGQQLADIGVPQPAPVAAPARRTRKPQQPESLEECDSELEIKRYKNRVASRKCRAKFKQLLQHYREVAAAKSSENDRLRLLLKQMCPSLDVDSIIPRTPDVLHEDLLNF
Numbers without * were called inactive; . = not tested or not shown.

Preview (3 entries):
SMILES	CTSL1 counter	Efflux pump inh	core dimer inh	EBNA-1 inhibitor	PP1 counter	TPT1 inh	PP5 primary	ZTA counter
CCCCN(C)CC(O)Cn1cc(/C=C/C(=O)c2cccs2)c2ccccc21 (stereo not given)	-2	0.2	0	8	-5	59*	-2.4	25
CCc1nnc(NC(=O)CSc2nnc(-c3ccc(OC)cc3)n2C)s1	1	0.2	-3	1	-2	-5	0.2	-5
COc1ccccc1N1CCN(C2=Nc3cccc4cccc2c34)CC1	0	-0.2	-1	3	-2	16	1.9	-3

Results, previewed entries included:
SMILES	CTSL1 counter	Efflux pump inh	core dimer inh	EBNA-1 inhibitor	PP1 counter	TPT1 inh	PP5 primary	ZTA counter
CCCCN(C)CC(O)Cn1cc(/C=C/C(=O)c2cccs2)c2ccccc21 (stereo not given)	-2	0.2	0	8	-5	59*	-2.4	25
CCc1nnc(NC(=O)CSc2nnc(-c3ccc(OC)cc3)n2C)s1	1	0.2	-3	1	-2	-5	0.2	-5
COc1ccccc1N1CCN(C2=Nc3cccc4cccc2c34)CC1	0	-0.2	-1	3	-2	16	1.9	-3
CC1CCN(C(=O)CSc2nnc(-c3ccc(S(=O)(=O)N4CCOCC4)cc3)n2C)CC1	0	0.0	-3	6	2	-3	1.4	-10
Cc1c(OCC(=O)NC2CC(C)(C)NC(C)(C)C2)ccc2c1oc(=O)c1ccccc12	3	-0.1	4	1	2	-1	0.9	3
Cc1cc(C)n(-c2ccc(S(=O)(=O)N3CCCC3)cc2[N+](=O)[O-])n1	-1	-0.1	-2	8	1	-3	-1.2	13
CC1CN(C2CC(C)(C)NC(C)(C)C2)CCC1=O (stereo not given)	0	0.0	-8	4	-1	-7	-1.0	-3
N#Cc1c(SCC(=O)Nc2cccc(F)c2)sc2c(O)cc(=O)[nH]c12	2	0.0	7	4	14	6	0.3	4
Cc1cc(N2CCN(c3ccccc3)CC2)nc(NCc2ccccc2)n1	-3	0.1	-4	2	5	-1	4.5	-1
C#Cc1ccc([C@@H]2C=C(C(=O)N3CCN(Cc4ccccc4)CC3)O[C@H](OCCCCO)C2)cc1	-1	-0.1	21	-3	1	1	2.6	16
CCCCOc1ccc(C(=O)C(CN2CCOCC2)c2ccccc2)cc1 (stereo not given)	1	0.1	-8	-7	6	-3	5.1	-6
O=C(C1CCN(C2CCN(Cc3ccc4cc(F)ccc4n3)CC2)CC1)N1CCCC1	-2	-0.2	-3	3	-8	4	-2.6	2
COc1ccc(CCN2C(=O)c3[nH]nc(-c4ccccc4O)c3C2c2cccc(O)c2)cc1OC (stereo not given)	1	0.1	14	-4	3	0	3.5	-4
COc1ccc(CCN2C(=O)c3[nH]nc(-c4ccccc4O)c3C2c2ccc(C)cc2)cc1OC (stereo not given)	-3	0.1	15	10	7	5	5.7	-2
Cn1c2ccccc2c2cc(/C=C(\NC(=O)c3ccccc3)C(=O)NCC(=O)O)ccc21	7	0.1	5	-10	1	87*	2.2	-10
Cc1nc2sc3c(c2c2nnc(SCC(=O)NCc4ccco4)n12)CCCC3	4	0.8*	7	5	0	-5	1.6	0
COc1cc2c(cc1OC)CN(C(=O)CSc1nc3[nH]ncc3c(=O)n1-c1ccccc1)CC2	-2	0.3	0	12	-2	-4	0.2	0
CCOC(=O)c1sc2c(c1C)c(=O)n(Cc1ccccc1)c(=O)n2CCN(C)C	3	-0.2	4	-3	-3	-1	-0.9	-1
COCCCN1C(=O)c2ccc(C(=O)OCC(=O)N3CCN(c4ccccc4)CC3)cc2C1=O	8	-0.2	4	3	-2	-2	-1.1	-4
Cc1ccc(-c2nc(CN(C)C3CCOC3)c(C)o2)s1 (stereo not given)	-5	0.0	2	-17	-1	1	-2.1	-1
Cc1ccccc1CSc1ccc2nnc(-c3ccccn3)n2n1	2	0.0	10	9	14	-3	1.1	7
COc1ccc2c(c1)c(=O)c(C(=O)c1ccccc1)cn2Cc1ccc(C)cc1	1	-0.1	24	7	6	-1	2.5	-3
COC(=O)c1[nH]c2cc(C)ccc2c1NC(=O)CN1CCN(c2ccccc2OC)CC1	-2	0.3	10	-17	4	3	5.3	4
CCn1c2ccccc2c2cc(NC(=O)COC(=O)c3cccc(S(=O)(=O)NC)c3)ccc21	6	0.4	1	5	3	0	1.0	-9
COc1cccc(N2CCN(c3ccc(S(=O)(=O)N4CCN(C)CC4)cc3[N+](=O)[O-])CC2)c1	.	-0.2	.	.	.	.	.	.
COc1cc(C(=O)Nc2ccc(O)cc2)ccc1OC(C)=O	-2	0.0	4	10	-2	2	-1.3	0
COC(=O)c1ccc(C(=O)OC)c(NC(=O)CN2CCN(c3ccccc3)CC2)c1	2	0.1	0	-3	-2	2	0.5	1
Cc1ccn2c(=O)nc(SCC(=O)Nc3ccc4c(c3)OCO4)nc2c1	1	-0.2	24	2	10	2	1.0	4
Cn1c(OCc2cccnc2)nc2c1c(=O)n(Cc1ccc(Br)cc1)c(=O)n2C	-1	-0.2	2	7	-2	-3	0.8	11
COc1ccc(CNc2nc3c(c(=O)n(Cc4ccc(Cl)cc4)c(=O)n3C)n2C)cc1	0	0.0	0	0	3	2	4.5	1
CCCN1CCN(C(=O)CCCNC(=O)Cn2cnc3sc(C)c(C)c3c2=O)CC1	-1	0.0	0	8	-4	3	-1.3	-1
COc1ccc(NC(=O)CSc2ccc(-c3ccco3)nn2)cc1	-2	0.0	16	7	2	4	2.5	4
COc1ccc(C(=O)c2c3ccc([N+](=O)[O-])cc3[n+]([O-])n2CCCN)cc1	0	0.1	2	7	5	0	2.0	-2
Cc1c(C#N)c(N=CN(C)C)c(C(=O)c2ccc(Br)cc2)n1-c1ccccc1	5	0.0	6	-1	-1	-1	2.1	2
OC(CN1CCCC1)Cn1ccc2ccccc21 (stereo not given)	-6	0.0	5	-4	-5	0	-0.1	-1
CSCCC(NC(=O)c1ccc(Cl)c([N+](=O)[O-])c1)C(=O)N1CCN(C/C=C/c2ccccc2)CC1 (stereo not given)	4	0.0	-2	-5	-4	1	5.9	14
Cn1c(=O)[nH]c(=O)c2c1nc(N1CCC(Cc3ccccc3)CC1)n2Cc1ccccc1	2	0.2	21	-4	9	-3	3.3	3
CCOc1ccc2[nH]c(=O)c(CN(Cc3nnnn3CCc3ccccc3)CC3CCCO3)cc2c1 (stereo not given)	5	0.2	10	-3	0	-3	1.5	-10
Cc1nn(-c2ccccc2)c(C)c1/C=N/n1c(-c2ccncc2)n[nH]c1=S	-2	0.4	-2	-4	1	0	0.8	2
COc1ccccc1-n1ccnc1SCC(=O)NC(C)(C)C	3	-0.3	-3	7	-1	-1	-0.5	3
COC(=O)c1[nH]c2ccc(C)cc2c1NC(=O)CN1CCN(c2ccc(F)cc2)CC1	-1	-0.1	8	-9	3	0	5.0	-3
CC1Cc2nc(SCC(=O)Nc3ccccc3F)n(C)c(=O)c2S1 (stereo not given)	0	0.2	4	-1	2	-2	-0.4	-9
CCOC(=O)c1c(CSC(=N)N)n(-c2ccc(C)cc2)c2cc(Br)c(OC(C)=O)cc12	5	0.1	1	-1	20*	-7	0.1	-4
CN(C)CCC1c2ccc(Cl)cc2CCc2cccnc21 (stereo not given) (tested in a mixture with another compound)	-1	0.5	5	-5	0	3	-0.3	-10
CCOC(=O)c1[nH]c2ccc(F)cc2c1NC(=O)CN1CCN(C/C=C/c2ccccc2)CC1	-3	0.2	3	-14	5	0	5.3	6

Retrieved by structure from the entries so far (2):
SMILES	CTSL1 counter	Efflux pump inh	core dimer inh	EBNA-1 inhibitor	PP1 counter	TPT1 inh	PP5 primary	ZTA counter
COC(=O)c1ccc(C(=O)OC)c(NC(=O)CN2CCN(c3ccccc3)CC2)c1	2	0.1	0	-3	-2	2	0.5	1
COc1cc(C(=O)Nc2ccc(O)cc2)ccc1OC(C)=O	-2	0.0	4	10	-2	2	-1.3	0

The list continues.
SMILES	CTSL1 counter	Efflux pump inh	core dimer inh	EBNA-1 inhibitor	PP1 counter	TPT1 inh	PP5 primary	ZTA counter
COC(=O)c1cc2ccsc2n1Cc1ccccc1F	-4	0.1	-7	4	-2	1	5.6	8
Cc1ccc(C(=O)O/N=C(\c2ccccc2)c2cccnc2)cc1	-4	0.0	-5	-4	-4	-1	2.4	-11
CCOC(=O)N1CCN(C(=O)c2ccc3c(c2)N(Cc2ccc(C)cc2)CCS3)CC1	1	0.8	15	-4	3	5	1.9	1
Cc1cccc(C2CC(c3ccc(Br)cc3)Nc3nc(N)nn32)c1 (stereo not given)	2	0.5	5	-7	-1	-4	3.8	-8
COc1cc(C=NNC(=O)c2cccnc2)ccc1OC(=O)c1ccccc1F	.	-0.1	.	.	.	.	.	.
CC(/C=N/n1c(-c2cccnc2)n[nH]c1=S)=C\c1ccccc1	2	0.1	-5	-14	3	-2	1.8	-6
COC(=O)CCC(=O)OC1(C)C(=O)C=C2C=C(C3CC3)N(Cc3ccc4c(c3)OCO4)C=C2C1=O (stereo not given)	-10	0.3	11	3	5	4	8.8	7
Cc1c(OCC(=O)NC2CC(C)(C)NC(C)(C)C2)ccc2c3c(c(=O)oc12)CCC3	4	-0.2	-19	12	2	-5	-1.7	-4
CC(OC(=O)CCc1c[nH]c2ccccc12)C(=O)c1ccccc1 (stereo not given)	-25	0.0	2	-3	-6	2	-0.1	-7
COc1cc(/C=N/NC(=O)CNC(=O)c2ccccc2)ccc1OC(=O)c1cccs1	12	0.4	2	-11	1	0	5.0	4
CC(C)Sc1nc2sc3c(c2c2nnc(SCC(=O)NCc4ccco4)n12)CCCC3	4	0.3	45	6	2	7	1.3	12
C/C(CC(=O)Nc1c(C)cc(C)cc1C)=N\NC(=O)OC(C)(C)C	-1	0.1	-1	4	-3	0	2.2	0
COc1ccccc1NC(=O)CN1CCN(c2ccc(Cl)cc2)CC1	-2	0.0	6	-4	2	0	2.9	-2
COc1cc(-c2nc3ccccn3c2NCC2CCCO2)ccc1O (stereo not given)	0	-0.1	-10	-1	-2	-1	2.0	-6
CCOC(=O)c1[nH]c2ccc(OCC)cc2c1NC(=O)CN1CCN(c2ccccc2)CC1	4	0.0	10	-4	3	2	3.3	-9
O=[N+]([O-])c1cc(CN2CCN(c3cccc(C(F)(F)F)c3)CC2)c2cccnc2c1O	0	0.1	22	10	18*	7	4.9	11
Cc1ccc(N2CC(C)Cn3c2nc2c3c(=O)[nH]c(=O)n2C)cc1C (stereo not given)	-6	0.1	0	-2	-2	-3	-0.5	16
O=C(CN1CCN(c2ccccc2O)CC1)Nc1cc([N+](=O)[O-])ccc1Cl	2	-0.1	5	-10	4	-2	1.7	-19
Cc1c(NC2=CC(=O)CC(C)(C)C2)ccc([N+](=O)[O-])c1C	13	0.0	-13	3	-8	-2	2.2	-5
CC1CN(CCc2ccccc2)c2nc3c(c(=O)n(CC(N)=O)c(=O)n3C)n2C1 (stereo not given)	2	-0.1	-18	0	-2	-1	2.2	-15
CCCn1c(N2CCC(Cc3ccccc3)CC2)nc2c1c(=O)[nH]c(=O)n2C	3	0.2	27	-4	0	6	5.3	0
CCC(=O)N(CCC(c1ccco1)C(C)C)Cc1ccccc1 (stereo not given)	30*	-0.1	7	4	3	-4	1.8	-3
N#CCCN(C(=O)COC(=O)CNS(=O)(=O)c1ccc2ccccc2c1)c1ccccc1	.	-0.1	.	.	-4	.	2.2	-3
CCc1cc2cc(C)ccc2nc1SCC(=O)Nc1cc(C)on1	4	-0.1	8	-2	3	-6	3.7	-20
COc1ccc(CNc2nc3ccccc3n2CCN2CCCCC2)c(OC)c1	2	0.0	-4	-3	0	-1	1.0	-1

Some values from the results shown.
COc1cc(/C=N/NC(=O)CNC(=O)c2ccccc2)ccc1OC(=O)c1cccs1 – EBNA-1 inhibitor = -11
CC(OC(=O)CCc1c[nH]c2ccccc12)C(=O)c1ccccc1 (stereo not given) – PP5 primary = -0.1
O=C(C1CCN(C2CCN(Cc3ccc4cc(F)ccc4n3)CC2)CC1)N1CCCC1 – core dimer inh = -3
COCCCN1C(=O)c2ccc(C(=O)OCC(=O)N3CCN(c4ccccc4)CC3)cc2C1=O – core dimer inh = 4

An excerpt; rates above refer to the full screens.
